VDR inhibitor: Inhibitors of the vitamin D receptor (VDR): qHTS; VDR-SRC2-3 peptide fluorescence polarization, 2 h; Potency, µM, inactives show max response, negative = inhibition, actives largely listed as inhibitors; 0.93% of 400,000 active; active means well fitted inhibition curve with a large enough effect; inconclusive means small, poorly fitted or top-dose-only effect, or another doubt; inactive means no such curve, though single readings can be large or run the other way; further: series mostly up to about 120 µM
Target sequence (P11473 whole entry, looked up): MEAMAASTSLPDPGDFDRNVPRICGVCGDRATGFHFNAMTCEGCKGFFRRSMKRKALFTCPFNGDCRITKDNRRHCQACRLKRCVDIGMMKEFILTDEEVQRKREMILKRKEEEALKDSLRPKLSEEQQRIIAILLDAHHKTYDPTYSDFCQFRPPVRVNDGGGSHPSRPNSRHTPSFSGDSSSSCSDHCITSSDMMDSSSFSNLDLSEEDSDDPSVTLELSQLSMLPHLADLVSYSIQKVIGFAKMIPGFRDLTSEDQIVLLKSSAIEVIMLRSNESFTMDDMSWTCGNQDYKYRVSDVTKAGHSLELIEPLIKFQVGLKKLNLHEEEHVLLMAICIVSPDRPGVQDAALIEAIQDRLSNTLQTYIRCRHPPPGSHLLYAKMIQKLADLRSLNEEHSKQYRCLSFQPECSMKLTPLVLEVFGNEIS
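Compounds are added to VDR with labelled SRC2-3 coactivator peptide and held 2 h at room temperature. Inhibition of the VDR–peptide interaction is then read as a change in fluorescence polarization.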
* marks the source's active call; other numbers are inactive results; ? = inconclusive; & = joins results of further samples. On the % scale 0 is the no-effect control and ±100 the full control effect; potency means the concentration at half of the fitted maximal effect. A portion of the library; count on the stated rates, not on these rows.

SMILES	VDR inhibitor
COc1ccc(CC(=O)OCC(=O)Nc2ccc(C(=O)Nc3ccc(OC)cc3)cc2)cc1	-4.4%
C#Cc1ccc([C@H]2C=C(C(=O)N3CCN(Cc4ccccc4)CC3)O[C@@H](OCC)[C@@H]2CCCO)cc1	10.4%
Cc1cccc(NC(=O)C2COc3ccccc3O2)c1 (stereo not drawn)	-2.8%
CC(=O)N1CCN(c2ccc(NC(=O)c3ccco3)cc2Cl)CC1	-1.7%
COc1ccc(CNS(=O)(=O)c2cc(-c3cc(C)no3)ccc2OC)cc1OC	2.6%
O=C(CN1N=C(c2ccccc2)CCC1=O)NCCCN1CCc2ccccc2C1	13.9%
CCN1CCN(CCn2c(=S)[nH]c3ccccc3c2=O)CC1	-12.6%
Cc1cccc(NS(=O)(=O)Cc2ccccc2)n1	-2.2%
O=C(O)Cn1cc(/C=C2/NC(=O)N(c3ccc(Cl)cc3)C2=O)c2ccccc21	-28.9%
CCOC(=O)N1CCN(c2nc(-c3ccccc3)c3ccccc3n2)CC1	0.4%
COc1ccc(CNS(=O)(=O)c2ccc3c(c2)NC(=O)C(C)C(=O)N3)cc1 (stereo not drawn)	-3.5%
COC(=O)C1CCN(Cc2cc(=O)oc3cc(OC)ccc23)CC1	16.6%
Cc1ccc(-c2noc(-c3cccs3)n2)cc1	-18.5%
CCOc1cc(NC(=S)NCC2CCCO2)c(OCC)cc1NC(=O)c1ccccc1F (stereo not drawn)	5.9%
COc1ccc(Cc2nnc(CCc3ccccc3)s2)cc1	1.9%
CCOc1ccc(NC(=O)Cn2c(=O)n(Cc3nc(-c4ccccc4)no3)c(=O)c3cc4c(cc32)OCO4)cc1	2.7%
Cc1cnc(NC(=O)CSc2nnc(Cc3ccccc3)n2C)s1	9.5%
COc1cc(C(=O)OCC(=O)NC2CCCC2)cc(NC(=O)c2ccco2)c1OC	11.6%
CCc1ccccc1NC(=O)CN(C)C(=O)CSc1nnc(Nc2cccc(C)c2C)s1	-9.4%
CCOC(=O)C1(C(F)(F)F)N=C(N(C)C)OC(N(C)C)=N1	-13.6%
C=CCNC(=S)NCc1ccccc1	-7.3%
CCN(CC(=O)Nc1ccc(NC(C)=O)cc1)C(=O)c1cccc(-n2cccc2)c1	6.3%
O=C(Nc1ccccc1F)c1cc(S(=O)(=O)N2CCOCC2)ccc1N1CCOCC1	3.4%
O=c1[nH]c(Nc2ccccc2Cl)cc2ccccc12	0.0%
Cc1cc(CC(=O)O)c(C)cc1CC(=O)O	1.2%
Cc1[nH]n2c(=O)cc(-c3ccccc3Cl)nc2c1-c1ccccc1	-20.9%
COc1ccc(-n2nc3cc(C)c(N)cc3n2)cc1Cl	-21.3%
COc1ccc(C(=O)CC(c2ccccc2)C2CCCCC2=O)cc1 (stereo not drawn)	3.4%
CN(CC(=O)Nc1ccc(Cl)cc1)C(=O)c1ccc(COc2ccccc2)cc1	-12.2%
COc1ccccc1NC(=O)c1ccc(-n2cncn2)nc1	10.1%
CCOC(=O)C1CCN(c2nc3c(S(=O)(=O)c4ccc(CC)cc4)nnn3c3ccc(Cl)cc23)CC1	-14.0%
CC(=O)Nc1ccc(NC(=O)C/C(C)=N/NC(=O)COc2cc(C)c(Br)cc2Br)cc1	-2.4%
COc1ccc2cc3c(N)nn(C(=O)c4ccccc4Cl)c3nc2c1	6.2%&-7.4%
COCCN(C(=O)CSc1nnc(-c2ccccc2C)n1C)c1c(N)n(Cc2ccccc2)c(=O)[nH]c1=O	-2.7%
Cc1cc(C)cc(N2CC(O)Cn3c2nc2c3c(=O)[nH]c(=O)n2C)c1 (stereo not drawn)	-5.3%
O=C(Nc1nc2c(F)cc(F)cc2s1)C1CCN(C(=O)c2ccc(F)cc2)CC1	0.2%
Cc1ccc(-c2nnc(CSc3nnc(C)s3)o2)cc1	0.3%
COc1ccccc1NC(=O)c1ccccc1SC	-2.4%
CCc1nnc(NS(=O)(=O)c2ccc(N/C=C\C(=O)c3ccc4ccccc4c3)cc2)s1	-23.2%
Cc1oc(C)c2c(=O)cc(-c3ccc4c(c3)OCO4)cc(OC(=O)c3cccc(Br)c3)c12	-3.7%
COc1ccc(N(C(=O)CCl)C(C(=O)NC2CCCCC2)c2cccnc2)cc1 (stereo not drawn)	-13.1%
COC(=O)c1cc(S(=O)(=O)N2CCN(Cc3ccccc3)CC2)c[nH]1	-0.8%
Cc1ccc(NC(=O)c2sccc2C)cc1[N+](=O)[O-]	-11.5%
CC(=O)N1c2ccc(S(=O)(=O)N3CCC(C(=O)NCCc4ccc(Cl)cc4)CC3)cc2CC1C (stereo not drawn)	-8.8%
Cc1ccc(S(=O)(=O)CCSC(=N)N)cc1	-7.8%
Cc1ccc(Cl)cc1N1CCN(C(=O)c2c(C)oc3ncnc(N4CCCCC4)c23)CC1	6.9%
O=C(CSc1ncn[nH]1)NC1CCCc2ccccc21 (stereo not drawn)	13.9%
C=CCn1c(C)cc(C(=O)COC(=O)COc2ccccc2C#N)c1C	-1.8%
Clc1ccc2c(c1)N=C(N1CCNCC1)c1ccccc1N2	9.2%
CC(C)c1nn2c(=O)cc(COC(=O)c3ccc(NC(=O)c4cccs4)cc3)nc2s1	17.0%
COc1ccc(NC(=O)Nc2ccc3c(c2)N(C)C(=O)CS3)cc1Cl	-0.1%
C/C(=N\NC(=S)NCc1ccccc1)c1ccc(C(C)(C)C)cc1	7.0%
Cc1ccnc(NC2c3ccccc3C(=O)N2Cc2ccccc2Cl)c1 (stereo not drawn)	-1.9%
CCN(CC)c1ccc(/C=N/NC(=O)OC)c(O)c1	7.7%
O=C(Nc1ccccc1N1CCCC1)C1CCN(S(=O)(=O)c2ccccc2)CC1	-2.6%
COCCNc1nc2c(c(=O)n(C)c(=O)n2C)n1Cc1c(F)cccc1Cl	-12.9%
Cc1noc(C)c1NC(=O)N(C)C[C@H]1Oc2ccc(NC(=O)Nc3ccc4c(c3)OCO4)cc2C(=O)N([C@H](C)CO)C[C@@H]1C	2.5%
N/C(CC(=O)Nc1ccc(F)cc1F)=N\OC(=O)c1cccs1	0.8%
O=C(c1ccco1)N1CCN(C(=O)c2snc3ccc(Cl)cc23)CC1	4.6%
CCOC(=O)C1CCN(C(=O)c2ccc(OCC)c(OCC)c2)CC1	-0.8%

Filtered by structure: the compounds so far containing a COOH group
SMILES	VDR inhibitor
O=C(O)Cn1cc(/C=C2/NC(=O)N(c3ccc(Cl)cc3)C2=O)c2ccccc21	-28.9%
Cc1cc(CC(=O)O)c(C)cc1CC(=O)O	1.2%

More structures follow.
SMILES	VDR inhibitor
CCN1C(=O)c2ccccc2S(=O)(=O)c2ccc(C(=O)NCc3cccnc3)cc21	-9.8%
COc1ccc(C(=O)C2CCCN(C3Cc4ccccc4C3)C2)c(OC)c1 (stereo not drawn)	5.4%
NC(=O)c1nsc(C(=O)N(Cc2cccnc2)C(C(=O)NCc2ccc(F)cc2)c2ccc(F)cc2)c1N (stereo not drawn)	-3.1%
Cc1nn2c(C)c(C(=O)NCc3cccc(Br)c3)cnc2c1-c1ccccc1	-0.7%
O=C(CCCn1c(SCc2cc(=O)n3ccccc3n2)nc2ccccc2c1=O)NCC1CCCO1 (stereo not drawn)	-2.9%
Cc1cc(C(=O)N/N=C/c2cccnc2)n[nH]1	-7.6%
CN(C)CCCNc1ccc(S(N)(=O)=O)cc1[N+](=O)[O-]	1.5%
O=C(c1ccccc1)N1CCN(C(=O)c2nn3c(C(F)(F)F)cc(-c4ccco4)nc3c2Br)CC1	1.6%
CCOC(=O)c1ccc2[nH]c(C)cc(=O)c2c1	4.5%
COc1ccccc1NC(=O)N1CCCC(CNC(=O)c2ccccc2Cl)C1 (stereo not drawn)	-9.6%
OCCNC(=S)NC1CCCCC1	12.4%
CN(C(=O)CSc1nc2cc(C(=O)O)ccc2c(=O)n1Cc1ccccc1)C1CCS(=O)(=O)C1 (stereo not drawn)	-1.6%
CCC(=O)Nc1cc(NC(=O)CSc2ncc(-c3ccc(F)cc3)n2Cc2ccco2)ccc1C	-8.9%
COc1ccc(Cc2nnc(NC(=O)CSc3ccc(C)cc3)s2)cc1	-0.4%
CC(=O)C1=C(O)C(=O)N(c2cccnc2)C1c1cccc([N+](=O)[O-])c1 (stereo not drawn)	-0.8%

Compounds shown so far that contain a thiophene ring, fused or not:
SMILES	VDR inhibitor
Cc1ccc(-c2noc(-c3cccs3)n2)cc1	-18.5%
Cc1ccc(NC(=O)c2sccc2C)cc1[N+](=O)[O-]	-11.5%
CC(C)c1nn2c(=O)cc(COC(=O)c3ccc(NC(=O)c4cccs4)cc3)nc2s1	17.0%
N/C(CC(=O)Nc1ccc(F)cc1F)=N\OC(=O)c1cccs1	0.8%

(more compounds)
SMILES	VDR inhibitor
CN(C(=O)COc1nnc(-c2cccs2)c(-c2cccs2)n1)c1ccccc1	-0.2%
CC(=O)Cc1nsc(NC(=O)c2ccc(Br)o2)n1	-9.0%
COc1ccc(CNC(=O)C2CCCN(S(=O)(=O)c3cc(C)ccc3OC)C2)cc1 (stereo not drawn)	-1.0%
NC1=NC(=O)/C(=C\c2cccnc2)S1	-4.4%
S=C(Nc1ccc(Nc2ccccc2)cc1)NC1CCCCCC1	7.6%
COCCN(C(=O)c1cc(-c2ccco2)nc2ccccc12)c1c(N)n(Cc2ccccc2)c(=O)[nH]c1=O	-15.3%
COc1ccc(CCNC(=O)CSc2nnc(CNC(=O)c3cccs3)o2)cc1OC	-23.5%
O=C(Nc1cccc(F)c1)N1CCCCCC1	-19.6%
CCN(C(C)=O)N(CC)c1nc(Cl)nc(NC(C)C)n1	7.0%
O=C(CN1CCN(c2ccc(O)cc2)CC1)N(C1CC1)C1CCS(=O)(=O)C1 (stereo not drawn)	-24.5%
CN1CCN(C(=S)c2ccc(-c3cccc([N+](=O)[O-])c3)o2)CC1	?
COc1ccc(Cl)cc1NC(=O)c1c(NCc2ccc(C)o2)sc2c1CCC(C)C2 (stereo not drawn)	1.9%
COc1ccc(S(=O)(=O)c2cnc3cc(OC)c(OC)cc3c2N2CCCC(C)C2)cc1 (stereo not drawn)	3.2%
Cc1cccc(NC(=O)C2CCCN(c3cnccn3)C2)c1 (stereo not drawn)	-3.7%
O=C(C(c1ccccc1)c1ccccc1)N1CCN(Cc2ccncc2)CC1	1.7%
Cc1nnc(SCC(=O)N2CCN(S(=O)(=O)c3ccccc3)CC2)n1Cc1ccccc1	-2.9%
CCn1cc(Cl)c(C(=O)Nc2nccs2)n1	2.3%
Cc1ccc(NC(=O)CSc2nc3[nH]c(=O)cc(O)c3s2)c(Br)c1	-1.9%
CC(C)(C)OC(=O)N1CCN(c2ccc(NC(=O)c3ccco3)cc2)CC1	-22.8%
CN(C)c1ccc(/C=C(/C#N)C(=O)Nc2nc3c(s2)CCN(Cc2ccccc2)C3)cc1	8.6%
CCN(CC)S(=O)(=O)c1ccc(C(=O)OCCN2C(=O)c3cccc4c(N5CCOCC5)ccc(c34)C2=O)cc1	-16.8%
COc1ccc(NC(=O)C23CCC(C)(C(=O)O2)C3(C)C)cc1 (stereo not drawn)	14.4%
COc1ccc2c(c1)OC[C@H]1[C@H]2N2C(=O)c3cc(OC)c(OC)cc3NC(=O)[C@@]2(C)[C@H]1c1ccccc1	-12.7%
Cc1ccccc1C(=O)Nc1ccc2c(C#N)c3nc4ccccc4nc3n2c1	-4.4%
Nc1nc(N)nc(C2C=CCCC2)n1 (stereo not drawn)	23.0%
O=C(Nc1cnn(C23CC4CC(CC(C4)C2)C3)c1)c1cnn2c(C(F)(F)F)cc(-c3ccco3)nc12	-2.9%
CCCCOC(=O)CSC1=C(C#N)C(c2ccccc2OC)C(C#N)C(=O)N1 (stereo not drawn)	5.5%
Cc1oc2cc(OCC(=O)O)ccc2c(=O)c1Oc1ccccc1	-12.7%
Cc1occc1C(=O)N1CCN(S(=O)(=O)c2ccccc2)CC1	-0.1%
Cc1cccc(Nc2nc3ccccc3n3c(N)nnc23)c1	-7.5%
O=C(CNC(=O)c1ccc(=O)[nH]c1)Nc1ccc(F)c(F)c1	2.4%
CCN(CC)CCSc1nc(O)c(C(C)C)c(=O)[nH]1	3.6%
COC(=O)c1cccc(N(CC(=O)NC2CCCC2)C(=O)CCC(=O)Nc2cc(C)on2)c1	-4.6%
Cc1ccc(NC(=O)C2CCN(S(=O)(=O)c3c(C)nn(C)c3C)CC2)c(Cl)c1	8.4%
COC(=O)c1ccc(COC(=O)c2nn(C)c(=O)c3ccccc23)cc1	-8.7%
O=C(Cn1cc2c(n1)CCCCC2)NCCCN1CCOCC1	-3.0%
CCOc1ccccc1CN1CCN(CC2CC2)CC1CCO (stereo not drawn)	0.6%
COc1ccc(N(CC(=O)Nc2cc(C)ccc2C)S(=O)(=O)c2ccc(OC)c(OC)c2)cc1	11.1%
CC(C)n1c(C(F)(F)F)nc2cc(C(=O)N3CCOCC3)ccc21	1.3%
O=C(Nc1cc(C(F)(F)F)ccc1Cl)c1ccncc1	-2.8%
Cc1cc2c(=O)n(NC(N)=O)c(C)nc2s1	7.6%
O=C(Cc1ccccc1)Nc1cccc(-c2cn3cccnc3n2)c1	27.5%
Cc1[nH][nH]c(=O)c1C(c1cc(Br)ccc1O)c1c(C)[nH][nH]c1=O	?
CS(=O)(=O)N(CC(=O)N1CCN(c2ccc(F)cc2)CC1)c1ccc(F)c(Cl)c1	9.9%
CCN(C(=O)COC(=O)/C=C/c1nc2ccccc2s1)c1c(N)n(Cc2ccccc2)c(=O)[nH]c1=O	-12.2%
Cn1c(SCC(=O)N2CCN(c3ccccc3)CC2)nnc1-c1ccccc1	1.6%
COc1ccc(Nc2nnc(SCC(=O)NC3CC3)s2)cc1	-8.7%
O=C(Nc1ccccc1)Nc1c(F)cccc1F	4.9%
CC(NC(=O)Nc1ccc(Cl)cc1)C1CCCO1 (stereo not drawn)	-7.3%

Three entries already listed, arranged by the number in VDR inhibitor, lowest first.
compound	VDR inhibitor
CC(C)(C)OC(=O)N1CCN(c2ccc(NC(=O)c3ccco3)cc2)CC1	-22.8%
NC1=NC(=O)/C(=C\c2cccnc2)S1	-4.4%
CCOC(=O)C1CCN(C(=O)c2ccc(OCC)c(OCC)c2)CC1	-0.8%

From PubChem
